Screens from PubChem.
FGF22 binding: FGF22 (human) thermal shift binding; 340,000 tested, 1.5% active; Q9HCT0; calls only at 9.99 µM; recombinant FGF22 thermal shift, SYPRO orange fluorescence; percent of sucrose octasulfate shift, DMSO zero;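 active = melting point raised past a set limit in the mean and every replicate; inconclusive = no clear call; three in four hits are not shown here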
Target sequence (Q9HCT0 whole entry, looked up): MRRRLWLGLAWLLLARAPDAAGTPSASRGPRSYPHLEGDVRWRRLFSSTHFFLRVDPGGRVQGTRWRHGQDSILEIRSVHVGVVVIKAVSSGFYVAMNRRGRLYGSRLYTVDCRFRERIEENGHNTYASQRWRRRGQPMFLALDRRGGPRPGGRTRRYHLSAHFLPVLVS
MLL AF4-AF9 inh: blocks AF4 peptide binding to human AF9; P42568; AlphaScreen, biotin-AF4 peptide binding to FLAG-AF9; inhibition, % at 10 µM; 350,000 tested, 0.47% active; AID 651704;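 active = every replicate reaching a set inhibition limit, whatever the replicate mean, cut at about 25% in these data; inconclusive = mean inhibition reaches that limit but some replicates miss it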;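 note: 0% = plate neutral control median and 100% = total signal loss; the record names both 10 and 1 µM as test concentration; the first replicate is given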
Target sequence (P42568 whole entry, looked up): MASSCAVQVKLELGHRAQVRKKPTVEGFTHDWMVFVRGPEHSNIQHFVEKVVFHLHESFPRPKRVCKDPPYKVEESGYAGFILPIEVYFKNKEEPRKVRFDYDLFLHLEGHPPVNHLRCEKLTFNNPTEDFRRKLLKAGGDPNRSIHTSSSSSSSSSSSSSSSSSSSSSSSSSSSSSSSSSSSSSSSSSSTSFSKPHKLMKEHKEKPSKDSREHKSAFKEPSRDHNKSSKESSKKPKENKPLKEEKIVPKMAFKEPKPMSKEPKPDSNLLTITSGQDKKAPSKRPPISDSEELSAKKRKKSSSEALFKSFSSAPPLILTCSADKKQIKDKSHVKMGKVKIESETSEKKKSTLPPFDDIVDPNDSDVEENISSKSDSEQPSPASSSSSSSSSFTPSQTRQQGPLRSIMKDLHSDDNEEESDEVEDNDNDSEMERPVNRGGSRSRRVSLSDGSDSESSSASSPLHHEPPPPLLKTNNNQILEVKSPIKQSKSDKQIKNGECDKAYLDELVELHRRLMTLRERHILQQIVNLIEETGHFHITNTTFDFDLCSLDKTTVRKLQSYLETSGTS
Ecoli rRNA inh: selective bacterial rRNA inhibition in E. coli. E. coli WT GFP vs humanized-ribosome RFP mutants, fluorescence, 24 h; hits give low values; DMSO median 0, no signal -100. GFP signal change (wild-type ribosome), % (no concentration beside the values). 350,000 tested, 1.6% active;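 active = significant combined selectivity score with lowered wild-type GFP, culture density cut under 30%, mutant RFP and density less affected; inactive = any of these conditions unmet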; note: one replicate is shown; some compounds called inactive have numbers as strong as hits
Ecoli rRNA inh OD600: recorded beside Ecoli rRNA inh, whose call it bears; OD600 change, %; measured here: OD600 growth;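 optical density of the mix in the first replicate; 0 = DMSO median and -100 = no signal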
Ecoli rRNA inh RFP: further read-out of Ecoli rRNA inh, marked with its call; RFP signal change, %; measured here: RFP humanized mutant strains;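 first replicate; 0 = DMSO median and -100 = no signal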
Active calls of the source: *; i = inactive; ? = inconclusive; & = joins results of further samples. A portion of the library; rates above refer to the full screens.

canonical_smiles,FGF22 binding,MLL AF4-AF9 inh,Ecoli rRNA inh,Ecoli rRNA inh OD600,Ecoli rRNA inh RFP
CC(NC(=O)Cc1ccc(S(=O)(=O)N2CCOCC2)s1)c1ccc(Br)cc1 (configuration not stated),i,0.0,5,-13,-1.1
COc1cccc(-c2ccc3n(c2=O)C[C@H]2[C@H](CO)[C@@H](C(=O)N(C)C)[C@@H]3N2CC2CC2)c1,i,-2.1,1,11,-6.1
CC(=O)Nc1cccc(-c2csc(C(C)(NC(C)=O)c3ccccc3)n2)c1 (configuration not stated),i,-2.9,7,13,1.1
C[C@@H]1CN([C@H](C)CO)C(=O)Cc2cc(NC(=O)Nc3cccc4ccccc34)ccc2O[C@H]1CN(C)S(C)(=O)=O,i,3.0,-7,-16,1.2
CN1C(=O)c2cc(NC(=O)c3ccccc3Cl)ccc2OC[C@H]2O[C@@H](CC(=O)Nc3ccc4c(c3)CCC4)CC[C@@H]21,i,5.8,-3,-10,-2.0
COc1cccc(NC(=O)N2C[C@@H](O)COC[C@@H]3O[C@H](CC(=O)NC4CCCC4)CC[C@H]32)c1,i,-0.6,1,0,-3.2
COc1ccc2c3c(n(C)c2c1)[C@H](CO)N(C(=O)C1CCOCC1)CC31CCN(C(=O)C2CCOCC2)CC1,i,-16,2,7,-0.2
CCC(=O)Nc1ccc2c(c1)C(=O)N(C)C[C@@H](OC)[C@@H](C)CN(C(=O)c1cccnc1)[C@H](C)CO2,i,-2.3,0,5,0.2
C[C@H]1CN([C@@H](C)CO)C(=O)c2cc(-c3ccncc3)cnc2O[C@H]1CN(C)C(=O)c1cccc(F)c1,i,-0.7,3,8,-3.1
COC(=O)C[C@@H]1C[C@@H]2c3cc(NS(C)(=O)=O)ccc3O[C@@H]2[C@@H](CO)O1,i,-1.5,3,12,-1.4
CCCNC(=O)N(C)C[C@@H]1Oc2ncc(C#CC3(O)CCCC3)cc2C(=O)N([C@@H](C)CO)C[C@H]1C,i,-1.7,2,1,-2.4
COc1ccc(NC(=O)Nc2cccc3c2O[C@@H](CN(C)Cc2ccc4c(c2)OCO4)[C@H](C)CN([C@@H](C)CO)C3=O)cc1,i,4.3,-7,-9,-0.6
O=C(N[C@@H]1CC[C@H](CCNC(=O)C2CC2)O[C@H]1CO)c1ccncc1,i,-3.2,3,9,-1.0
CC(C)NC(=O)Nc1ccc2c(c1)C(=O)N([C@@H](C)CO)C[C@@H](C)[C@H](CN(C)C)OCCCC[C@@H](C)O2,i,-1.7,4,4,-4.7
C[C@@H]1CN([C@H](C)CO)C(=O)c2cc(N(C)C)ccc2O[C@@H](C)CCCCO[C@@H]1CN(C)S(=O)(=O)c1ccc(F)cc1,i,-1.8,-1,2,-0.5
C[C@H]1CCCCO[C@H](CN(C)S(=O)(=O)c2cccs2)[C@@H](C)CN([C@@H](C)CO)C(=O)c2cc(NC(=O)Nc3ccccc3)ccc2O1,i,0.5,0,0,-0.6
CCCc1cn(CC[C@@H]2CC[C@@H](NS(=O)(=O)c3ccccc3Cl)[C@H](CO)O2)nn1,i,0.2,0,5,-0.2
COc1cccc(C(=O)Nc2ccc3c(c2)C(=O)N(C)C[C@H](OC)[C@@H](C)CN(CCc2ccccc2)[C@H](C)CO3)c1,i,1.4,-3,-4,11
C[C@@H]1CCCCO[C@H](CN(C)C(=O)Nc2cccc3ccccc23)[C@@H](C)CN([C@H](C)CO)C(=O)c2cc(NC(=O)NC3CCCCC3)ccc2O1,i,3.5,7,14,0.3
O=C(C[C@H]1C[C@H]2c3cc(NC(=O)c4cccnc4)ccc3O[C@H]2[C@H](CO)O1)NCc1ccccn1,i,-0.2,1,5,-2.0
CNC(=O)C[C@@H]1CC[C@@H]2[C@H](COc3ccc(NC(=O)Nc4cccc(C)c4)cc3C(=O)N2C)O1,i,-0.6,1,-6,-0.3
Cc1ccccc1S(=O)(=O)NCC[C@@H]1CC[C@H](NC(=O)C2CCC2)[C@H](CO)O1,i,-3.1,-1,-2,-1.7
C[C@@H]1CN([C@H](C)CO)C(=O)c2cccc(NC(=O)C3CCOCC3)c2O[C@@H]1CN(C)Cc1ccc(C(F)(F)F)cc1,i,-1.5,0,0,0.6
COC(=O)[C@@H]1[C@@H](CO)[C@@H]2Cn3c(ccc(-c4ccccc4F)c3=O)[C@@H]2N1Cc1ccncc1,i,-17,3,1,4.3
COC(=O)c1ccc(-c2csc(NC(=O)c3c(C)noc3C)n2)cc1,i,?,-8,1,2.1

At a glance, some entries already given:
canonical_smiles,FGF22 binding,MLL AF4-AF9 inh,Ecoli rRNA inh,Ecoli rRNA inh OD600,Ecoli rRNA inh RFP
CC(NC(=O)Cc1ccc(S(=O)(=O)N2CCOCC2)s1)c1ccc(Br)cc1 (configuration not stated),i,0.0,5,-13,-1.1
COc1cccc(-c2ccc3n(c2=O)C[C@H]2[C@H](CO)[C@@H](C(=O)N(C)C)[C@@H]3N2CC2CC2)c1,i,-2.1,1,11,-6.1
CC(=O)Nc1cccc(-c2csc(C(C)(NC(C)=O)c3ccccc3)n2)c1 (configuration not stated),i,-2.9,7,13,1.1
C[C@@H]1CN([C@H](C)CO)C(=O)Cc2cc(NC(=O)Nc3cccc4ccccc34)ccc2O[C@H]1CN(C)S(C)(=O)=O,i,3.0,-7,-16,1.2

Continued:
canonical_smiles,FGF22 binding,MLL AF4-AF9 inh,Ecoli rRNA inh,Ecoli rRNA inh OD600,Ecoli rRNA inh RFP
COCCNC(=O)C1(C)Cc2c(-c3cccc(NC(C)=O)c3)ccnc2O1 (configuration not stated),i,1.5,15,21,-4.0
C[C@@H]1CN([C@@H](C)CO)S(=O)(=O)c2ccc(C#C[C@@H](C)O)cc2O[C@H]1CN(C)C(=O)c1ccccc1,i,-1.8,-1,1,-0.5
CCC(=O)N1[C@H](CO)[C@@H](c2ccccc2)C12CN(CCC(F)(F)F)C2,i,2.2,2,9,0.6
CC(C)CC#Cc1cnc2c(c1)C(=O)N([C@H](C)CO)C[C@@H](C)[C@H](CN(C)Cc1cncnc1)O2,i,0.7,1,12,0.4
COc1ccc(S(=O)(=O)N(C)C[C@H]2OCCCC[C@@H](C)Oc3ccc(N(C)C)cc3C(=O)N([C@H](C)CO)C[C@H]2C)cc1,i,?,-3,-2,1.9
CC(=O)N[C@H]1CC[C@H](CCNC(=O)C2CCCC2)O[C@@H]1CO,i,1.2,0,5,-1.3
C[C@@H]1CCCCO[C@H](CN(C)Cc2ccc(Cl)c(Cl)c2)[C@H](C)CN([C@@H](C)CO)C(=O)c2cc(NC(=O)Nc3ccc(F)cc3)ccc2O1,i,4.4&0.2,6,15,6.6
C[C@@H]1CCCCO[C@H](CN(C)C(=O)CCCN(C)C)[C@@H](C)CN([C@@H](C)CO)C(=O)c2cc(NC(=O)CCCN(C)C)ccc2O1,i,0.4,1,5,-1.9
C[C@@H](NC(=O)C[C@H]1C=C[C@H](NC(=O)C2CCOCC2)[C@H](CO)O1)c1ccccc1,i,-0.5,-2,2,-0.6
CSc1ccc(CN2CCC(C)(Oc3ccccc3)C2)cc1 (configuration not stated),i,2.1,-10,0,-1.6
CO[C@H](CN(C)C(=O)c1cnccn1)[C@H](C)CN([C@@H](C)CO)S(=O)(=O)c1ccc(Cl)cc1,i,-2.2,-2,-6,-3.6
C[C@@H]1CN([C@H](C)CO)C(=O)Cc2cc(NC(=O)C3CC3)ccc2O[C@H]1CN(C)Cc1ccc(C(F)(F)F)cc1,i,2.9,-2,-10,4.8
COc1ccc(-c2nc3ccc(C)cn3c2Cc2ccc(C)cc2)cc1OC,i,3.5,-49,-80,-14
COc1cccc(NC(=O)N[C@@H]2CC[C@@H](CC(=O)N3CCN(C)CC3)O[C@@H]2CO)c1,i,-2.5,0,3,0.2
Oc1ccccc1C1=NC(c2ccccc2)NC(c2ccccc2)C1 (configuration not stated),i,-25,-6,-7,4.3
COc1ccc2c3c([nH]c2c1)[C@H](CO)N(C(=O)NC(C)C)CC31CN(C(=O)NC2CCCC2)C1,i,1.5,1,6,0.5
C[C@@H]1CN([C@@H](C)CO)C(=O)c2cc(C#Cc3ccncc3)cnc2O[C@@H]1CN(C)CC1CCOCC1,i,-9.5,11,11,-1.3
COC(=O)C[C@@H]1CC[C@@H](NC(=O)Nc2ccc(C(F)(F)F)cc2)[C@@H](CO)O1,i,-3.2,-7,-17,5.3
CCCN1[C@H](C(=O)NCC)[C@@H](CO)[C@@H]2Cn3c(ccc(/C=C/c4ccccc4)c3=O)[C@@H]21,i,-33,-4,-9,4.2
C(=NN1CCCCCC1)c1ccc2ccccc2n1,i,14,0,-6,2.1
CN(C)Cc1c[nH]c2nc[nH]c(=O)c12,i,-5.5,12,9,0.4
O=C(c1ccccc1F)N1CC[C@@H]2[C@H](CO)Nc3ccc(-c4ccccc4)cc3[C@@H]21,i,-13,-4,-11,5.0
O=C(NCCc1ccccc1)[C@H]1N[C@H]2c3ccc(-c4ccc(F)cc4)c(=O)n3C[C@H]2[C@@H]1CO,i,-27,-8,-6,4.5
C[C@@H]1CN([C@H](C)CO)C(=O)c2cccc(NC(=O)C3CCOCC3)c2O[C@H]1CN(C)C,i,-0.5,3,10,2.2
C[C@H](CO)N1C[C@H](C)[C@H](CN(C)CC2CC2)Oc2ncc(-c3cccc(C(=O)N(C)C)c3)cc2C1=O,i,-3.0,3,2,-1.1

Compound profiles (already shown). Order of values: FGF22 binding | MLL AF4-AF9 inh | Ecoli rRNA inh | Ecoli rRNA inh OD600 | Ecoli rRNA inh RFP
Shown for `COc1cccc(NC(=O)N[C@@H]2CC[C@@H](CC(=O)N3CCN(C)CC3)O[C@@H]2CO)c1` : i | -2.5 | 0 | 3 | 0.2
Shown for `O=C(c1ccccc1F)N1CC[C@@H]2[C@H](CO)Nc3ccc(-c4ccccc4)cc3[C@@H]21` : i | -13 | -4 | -11 | 5.0
Shown for `O=C(NCCc1ccccc1)[C@H]1N[C@H]2c3ccc(-c4ccc(F)cc4)c(=O)n3C[C@H]2[C@@H]1CO` : i | -27 | -8 | -6 | 4.5

(more compounds)
| structure | FGF22 binding | MLL AF4-AF9 inh | Ecoli rRNA inh | Ecoli rRNA inh OD600 | Ecoli rRNA inh RFP |
| --- | --- | --- | --- | --- | --- |
| CC(=O)Nc1cccc(-c2cc(NC(C)=O)c3ncc(-c4cccc(C(F)(F)F)c4)n3c2)c1 | i | -9.6 | -6 | -17 | 6.5 |
| O=C(C[C@@H]1C[C@@H]2c3cc(NS(=O)(=O)c4ccc(F)cc4)ccc3O[C@@H]2[C@H](CO)O1)NCC(F)(F)F | i | -1.0 | 2 | 6 | -0.5 |
| CC(C)NC(=O)N(C)C[C@@H]1OCCCC[C@@H](C)Oc2ccc(NC(=O)C3CCCCC3)cc2C(=O)N([C@H](C)CO)C[C@H]1C | i | -3.8 | -3 | -1 | -1.3 |
| Cc1ccc2nc(C3CCCCC3)c(CC(C)(C)C)n2c1 | i | 5.5 | -25 | -50 | -2.8 |
| Cc1c2ccncc2cc2c1[nH]c1ccccc12 | i | -2.9 | -65 | -71 | -23 |
| O=C(NCc1ccccc1)c1ccc(-c2ccc(F)c(F)c2)c2ccoc12 | i | -4.4 | -4 | -27 | -5.2 |
| C[C@H](NS(=O)(=O)c1ccc(Cl)cc1)C(=O)OCC(=O)NCCc1ccc(S(N)(=O)=O)cc1 | i | -4.5 | 2 | 12 | 0.3 |
| O=C(C[C@H]1C[C@H]2c3cc(NS(=O)(=O)c4ccc(F)cc4)ccc3O[C@H]2[C@@H](CO)O1)NCc1ccc(Cl)cc1 | i | 0.9 | -3 | -5 | 0.9 |
| C[C@@H]1CN([C@@H](C)CO)C(=O)c2cc(NS(=O)(=O)c3cn(C)cn3)ccc2O[C@H]1CN(C)C | i | -0.9 | -1 | 2 | 0.7 |
| COc1c(N)c2c(c([N+](=O)[O-])c1OC)C(=O)OC2 | i | -0.3 | 4 | 3 | 1.2 |
| Cn1cc(-c2coc3c(C(=O)NCc4cccc(Cl)c4)cccc23)cn1 | i | 1.5 | -36 | -43 | -8.1 |
| C[C@H](CO)N1C[C@H](C)[C@@H](CN(C)Cc2ccc(Oc3ccccc3)cc2)Oc2ccc(NS(=O)(=O)c3ccccc3)cc2C1=O | i | 3.1 | 5 | -23 | 13 |
